Bioassay records deposited in PubChem by several laboratories.
MT1-MMP act inh: MT1-MMP (human) activation inhibition; GFP/RFP ratio change, % at 20 µM; actives 0.061% (n = 360,000); HT1080 RFP-PRO-GFP cells, GFP/RFP ratio fluorescence, overnight; percent of plate control window, DMSO zero; AID 651647; P50281;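 active means GFP/RFP ratio change of at least 30% with cell ATP level not reduced by more than half and red fluorescence within 50% of control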; further: strong numbers were not always called active
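Test system: HT1080 cells expressing an RFP-PRO-GFP fluorescent reporter construct / Compound dosing: single-point 20 µM compound, 1% DMSO / Schedule: cells overnight before dosing, compound overnight, 37 °C, 5% CO2 / Evaluation: GFP/RFP fluorescence ratio / Control set: DMSO and RFP-L50D-GFP cell wells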
Rce1 inh: yeast Ras-converting enzyme inhibition; actives 0.27% (n = 290,000); calls only; yeast membranes, quenched prenylated peptide cleavage fluorescence; AID 2563; Q03530;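 active means fall in fluorescence gain of 50% or more versus controls, with final raw signal at or below 3038400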;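 further: plate controls were neutral control wells for no effect and wells lacking membranes for full effect; tested at 10 µM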
eIF4H inh: inhibitors of RNA binding by human eIF4H. eIF4H fluorescence polarization binding assay. inhibition, % at 35 µM. Q15056. actives 0.94% (n = 290,000);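 active means 50% or more with normal probe brightness, or confirmed in later tests; about a fifth of its hits are not listed in these tables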;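 further: calls also rest on retests at 20 µM and on dose response follow-up; 0% = protein and probe with vehicle and 100% = probe without protein; strong numbers were not always called active; many hits fall short of the cut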
HIV Env fusion: inhibitors of HIV Env-mediated cell fusion; HeLa-JRFL Env/CEM21 cell fusion, luciferase; inhibition, % at 12.3 µM; actives 1.1% (n = 360,000); AID 651610;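 active means mean replicate inhibition score of at least 50 and every replicate individually at or above 50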;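 further: 0% = plate neutral controls and 100% = maraviroc near 300 nM; one replicate is shown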
CSC inhib: blocks cancer stem cells | cancer stem cell-like cells viability, luminescence | inhibition, % at 7.5 µM | actives 1.1% (n = 300,000) | AID 2717;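 active means mean at 75% or more and at least half the replicates too; tested in HMLE shEcad cells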;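 further: 0% = median of negative and 100% = median of positive control wells; the first replicate is given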
PABP FP inh: PABP-poly(A) binding inhibition; inhibition, % at 35 µM; AID 2014; P11940; actives 1% (n = 290,000); PABP-poly(A) RNA binding, fluorescence polarization;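 active means 50% or more with normal probe brightness, or confirmed in later tests; about a fifth of its hits are not listed in these tables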;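 further: calls also rest on retests at 20 µM and on dose response follow-up; controls were probe without protein and protein plus probe with vehicle; some compounds called inactive have numbers as strong as hits; many hits fall short of the cut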
Target sequence (P11940 whole entry, looked up): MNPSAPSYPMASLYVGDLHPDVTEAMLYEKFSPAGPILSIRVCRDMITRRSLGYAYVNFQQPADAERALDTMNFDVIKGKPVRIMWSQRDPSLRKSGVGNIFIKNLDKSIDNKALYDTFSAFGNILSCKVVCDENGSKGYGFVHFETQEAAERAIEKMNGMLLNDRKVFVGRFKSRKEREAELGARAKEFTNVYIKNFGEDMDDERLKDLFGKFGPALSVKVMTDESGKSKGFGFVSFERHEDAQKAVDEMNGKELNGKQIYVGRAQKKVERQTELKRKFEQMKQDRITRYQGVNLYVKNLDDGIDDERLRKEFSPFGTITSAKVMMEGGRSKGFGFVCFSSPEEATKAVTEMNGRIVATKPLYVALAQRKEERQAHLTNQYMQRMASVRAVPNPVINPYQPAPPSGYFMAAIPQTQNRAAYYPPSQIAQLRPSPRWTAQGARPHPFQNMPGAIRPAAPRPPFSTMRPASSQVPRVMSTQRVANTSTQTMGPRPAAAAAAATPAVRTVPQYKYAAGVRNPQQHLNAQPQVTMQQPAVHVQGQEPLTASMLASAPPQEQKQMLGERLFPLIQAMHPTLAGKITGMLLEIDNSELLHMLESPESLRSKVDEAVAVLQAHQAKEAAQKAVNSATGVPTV
UUG fidelity: modulators of start codon recognition fidelity in yeast | activity score, % at 18.7 µM | AID 602363 | actives 0.13% (n = 350,000) | S. cerevisiae UUG-firefly luciferase reporter, luminescence/redox ratio;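 active means replicate mean at a twofold rise or more, about +100% in these data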;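 further: firefly luciferase made from a UUG start codon reports start codon fidelity; reporter light over untreated wells divided by growth signal over untreated wells; some hits fall short of that in this replicate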
eIF4H inh retest: also measured in eIF4H inh; calls as there; inhibition, %; compound at 20 µM; confirmation average;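 mean of two retest wells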
PABP FP inh retest: also measured in PABP FP inh; calls as there; inhibition, %; compound at 20 µM; confirmation repeats;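 mean of two retest wells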
MT1-MMP act inh RFP: further read-out of MT1-MMP act inh, marked with its call; RFP signal change, %; measured here: RFP expression control read;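 0 = vehicle wells; hits needed this value within 50% of zero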
Starred values were filed as active, the others as inactive.

OC(c1cc(C(F)(F)F)nc2c(Cl)cc(Cl)cc12)C1CCCCN1 (stereo not given) was read as MT1-MMP act inh -6, Rce1 inh inactive, eIF4H inh -3, HIV Env fusion -46, CSC inhib 41, PABP FP inh -6, UUG fidelity -2 and MT1-MMP act inh RFP -5.
For Cc1c(NC(=O)CSc2nnc(-c3ccncc3)o2)c(=O)n(-c2ccccc2)n1C the results were MT1-MMP act inh 2, Rce1 inh inactive, eIF4H inh -4, HIV Env fusion -19, CSC inhib 3, PABP FP inh -7, UUG fidelity 0 and MT1-MMP act inh RFP 3.
`O=C(N/N=C/c1ccc(O)cc1O)c1ccncc1` gave MT1-MMP act inh -7, Rce1 inh inactive, eIF4H inh 17, HIV Env fusion 8, CSC inhib 71, PABP FP inh 17, UUG fidelity -14 and MT1-MMP act inh RFP -3.
Screening CC(=O)N1CCN(CC(=O)Nc2ccc(C)c(F)c2)CC1 returned MT1-MMP act inh 2, Rce1 inh inactive, eIF4H inh 9, HIV Env fusion 15, CSC inhib -8, PABP FP inh 9, UUG fidelity -16 and MT1-MMP act inh RFP -4.
Screening C=CCN1C(C(=O)c2ccccc2)=C(OC(=O)COc2ccccc2)c2ccccc2S1(=O)=O returned MT1-MMP act inh -2, eIF4H inh -8, HIV Env fusion 41, CSC inhib -3, PABP FP inh 11, UUG fidelity -2 and MT1-MMP act inh RFP -6.
O=C(O)CS(=O)(=O)CC(=O)NCc1cccc(C(F)(F)F)c1 was read as MT1-MMP act inh 1, Rce1 inh inactive, eIF4H inh 0, HIV Env fusion -12, CSC inhib -10, PABP FP inh 6 and MT1-MMP act inh RFP 7.
Screening COc1ccc(CNC(=O)C(c2cccs2)N(C(=O)c2csnn2)C2CC2)cc1 (stereo not given) returned MT1-MMP act inh -2, Rce1 inh inactive, eIF4H inh 7, HIV Env fusion -32, CSC inhib -12, PABP FP inh 8, UUG fidelity -7 and MT1-MMP act inh RFP 3.
N/C(=N\OC(=O)c1ccc(Cl)cc1Cl)c1ccc(Cl)cc1 was read as Rce1 inh inactive, eIF4H inh 2, CSC inhib 6, PABP FP inh 6 and UUG fidelity -9.
`Cc1cn(CC(=O)NCc2ccc3c(c2)OCO3)c(=O)[nH]c1=O` gave MT1-MMP act inh 2, HIV Env fusion 4, UUG fidelity -13 and MT1-MMP act inh RFP 3.
Screening O=C(Nc1ccc(F)c(Cl)c1)c1cc(C2CCCCN2C(=O)c2ccccc2)on1 (stereo not given) returned MT1-MMP act inh -8, HIV Env fusion -13, UUG fidelity 1 and MT1-MMP act inh RFP -12.
Screening O=C(C1CC(=O)N(c2ccc(F)cc2)C1)N1CCN(c2ccc(F)cc2)CC1 (stereo not given) returned MT1-MMP act inh -1, Rce1 inh inactive, eIF4H inh 4, HIV Env fusion 15, CSC inhib 13, PABP FP inh 4, UUG fidelity -8 and MT1-MMP act inh RFP 1.
Cc1ccc(CN(Cc2ccc(C)o2)C(=S)NCC(=O)O)cc1 was read as MT1-MMP act inh 2, Rce1 inh inactive, eIF4H inh 7, CSC inhib 10, PABP FP inh -5 and MT1-MMP act inh RFP 1.
COC(=O)c1c(N)sc(Cc2ccccc2)c1C was read as MT1-MMP act inh 6, Rce1 inh inactive, eIF4H inh -1, HIV Env fusion 12, CSC inhib -3, PABP FP inh 0 and MT1-MMP act inh RFP 4.
For COc1ccccc1N1CCN(C(=O)c2ccc3nc(-c4ccco4)c(-c4ccco4)nc3c2)CC1 the results were MT1-MMP act inh 0, Rce1 inh inactive, eIF4H inh 92, HIV Env fusion 0, CSC inhib -4, PABP FP inh 8, UUG fidelity -11, eIF4H inh retest -6, PABP FP inh retest 6 and MT1-MMP act inh RFP -9.
O=c1/c(=C/c2ccc(O)cc2)sc2n1CCCN=2 was read as MT1-MMP act inh -5, eIF4H inh -2, CSC inhib -6, PABP FP inh 7 and MT1-MMP act inh RFP -7.
`COc1cc(S(=O)(=O)NC2CCCC2)c(OC)cc1Cl` gave MT1-MMP act inh 4, Rce1 inh inactive, eIF4H inh -4, HIV Env fusion -8, CSC inhib 9, PABP FP inh 4, UUG fidelity 7 and MT1-MMP act inh RFP 0.
Screening CCOc1cc(C(=O)NC(CC(=O)O)c2ccc(OC3CCCC3)cc2)cc(OCC)c1OCC (stereo not given) returned MT1-MMP act inh -8, Rce1 inh inactive, eIF4H inh -1, HIV Env fusion -5, CSC inhib -2, PABP FP inh 2, UUG fidelity -5 and MT1-MMP act inh RFP -1.
COc1cc(NC(=S)NC2CC(C)(C)NC(C)(C)C2)cc(OC)c1 was read as MT1-MMP act inh 12, Rce1 inh inactive, eIF4H inh -12, HIV Env fusion -7, CSC inhib -4, PABP FP inh 5, UUG fidelity -25 and MT1-MMP act inh RFP -2.
Screening CCC(=O)N1CCN(c2ccc(Cl)cc2NC(=O)c2ccc(Br)o2)CC1 returned MT1-MMP act inh -4, Rce1 inh inactive, HIV Env fusion -42, CSC inhib -2, UUG fidelity -14 and MT1-MMP act inh RFP -1.
Cc1onc(-c2ccccc2Cl)c1C(=O)NC(=S)NCc1cccnc1 was read as MT1-MMP act inh 1, Rce1 inh inactive, eIF4H inh -2, HIV Env fusion 0, CSC inhib 2, PABP FP inh 3 and MT1-MMP act inh RFP -6.

Looked up one by one from the entries so far, 2 records:
O=c1/c(=C/c2ccc(O)cc2)sc2n1CCCN=2 was read as MT1-MMP act inh -5, eIF4H inh -2, CSC inhib -6, PABP FP inh 7 and MT1-MMP act inh RFP -7.
Cc1onc(-c2ccccc2Cl)c1C(=O)NC(=S)NCc1cccnc1 was read as MT1-MMP act inh 1, Rce1 inh inactive, eIF4H inh -2, HIV Env fusion 0, CSC inhib 2, PABP FP inh 3 and MT1-MMP act inh RFP -6.

Next structures:
For COc1ccc(Cl)c2sc(N(CCN(C)C)C(=O)C3=COCCO3)nc12 the results were MT1-MMP act inh 1, HIV Env fusion -3, UUG fidelity -22 and MT1-MMP act inh RFP 0.
Screening COc1cc(O)c2c(c1)OC(c1ccc(O)cc1)CC2=O (stereo not given) returned MT1-MMP act inh 5, Rce1 inh inactive, eIF4H inh 10, CSC inhib 8, PABP FP inh 4, UUG fidelity -1 and MT1-MMP act inh RFP 2.
`CCc1nc2ccc(C(=O)Nc3ccc(OC)c(OC)c3)cn2c1N(CC)Cc1cccc(Br)c1` gave MT1-MMP act inh 0, HIV Env fusion -4, UUG fidelity -2 and MT1-MMP act inh RFP -5.
CCOC(=O)c1cccc(NC(=O)CCn2nnc3ccccc32)c1 was read as MT1-MMP act inh 1, Rce1 inh inactive, eIF4H inh 1, HIV Env fusion -7, CSC inhib -4, PABP FP inh -5, UUG fidelity -19 and MT1-MMP act inh RFP -3.
Screening CCOC(=O)C(=O)Nc1nc(-c2ccc3c(c2)CCN3C(=O)C2CC2)c(C)s1 returned MT1-MMP act inh 1, eIF4H inh -15, HIV Env fusion -5, CSC inhib -2, PABP FP inh 15, UUG fidelity -5 and MT1-MMP act inh RFP 3.
O=C(CCn1c(=O)oc2cc(Cl)ccc21)Nc1ccc(O)cc1 was read as MT1-MMP act inh 3, Rce1 inh inactive, eIF4H inh -2, HIV Env fusion -2, CSC inhib 3, PABP FP inh 2, UUG fidelity -12 and MT1-MMP act inh RFP 3.
Screening CCc1cc(=O)oc2c3c(cc(OCC(=O)NCCCCCC(=O)O)c12)OC(C)(C)CC3 returned MT1-MMP act inh 4, Rce1 inh active, eIF4H inh -6, HIV Env fusion 1, CSC inhib -12, PABP FP inh -1, UUG fidelity -12 and MT1-MMP act inh RFP 0.
Screening COc1cc(-c2cnc3c(NC=O)cc(-c4cccc(C(F)(F)F)c4)cn23)cc(OC)c1OC returned MT1-MMP act inh 16, HIV Env fusion 18, UUG fidelity -8 and MT1-MMP act inh RFP -27.
For CC1CCN(C(=O)COC(=O)c2ccc(=O)n(Cc3ccccc3)n2)CC1 the results were MT1-MMP act inh 1, Rce1 inh inactive, HIV Env fusion -15, CSC inhib 12, UUG fidelity -9 and MT1-MMP act inh RFP 1.
`O=C1NC(=S)SC1=Cc1ccc2c(c1)OCO2` gave MT1-MMP act inh -5, HIV Env fusion -14, UUG fidelity -9 and MT1-MMP act inh RFP 2.
For O=C(CNC(=O)c1ccccc1F)NCc1ccncc1 the results were MT1-MMP act inh 5, HIV Env fusion 2, CSC inhib -12 and MT1-MMP act inh RFP -1.
Screening Nc1ccc(Sc2nnnn2-c2ccccc2)c(Cl)c1 returned MT1-MMP act inh 1, Rce1 inh inactive, eIF4H inh -6, HIV Env fusion 2, CSC inhib 9, PABP FP inh -1, UUG fidelity -11 and MT1-MMP act inh RFP 2.
For O=C(NC1CCCC1)C1C2C=CC(C2)C1C(=O)N1CCOCC1 (stereo not given) the results were MT1-MMP act inh -5, Rce1 inh inactive, eIF4H inh -7, HIV Env fusion -2, CSC inhib -14, PABP FP inh -2, UUG fidelity -20 and MT1-MMP act inh RFP 1.
Screening CCc1ccccc1S(=O)(=O)Cc1ccc(C(=O)NCCc2ccccc2)o1 returned MT1-MMP act inh -5, Rce1 inh inactive, eIF4H inh -13, HIV Env fusion 1, CSC inhib 0, PABP FP inh 4 and MT1-MMP act inh RFP -5.
`COc1ccc(C(=S)N2CCOCC2)cc1OC(=O)c1ccc(C)cc1` gave MT1-MMP act inh 2, Rce1 inh inactive, eIF4H inh -3, HIV Env fusion 4, PABP FP inh 2, UUG fidelity 2 and MT1-MMP act inh RFP 1.
`COCCNC(=O)CCCn1c(=O)c2cc(OC)c(OC)cc2n(CC(=O)c2ccc(Cl)cc2)c1=O` gave Rce1 inh inactive, eIF4H inh 2, HIV Env fusion 7, CSC inhib -12 and PABP FP inh 3.
CN1CCc2c(sc(/N=C/c3cc(Cl)ccc3O)c2C#N)C1 was read as MT1-MMP act inh -20, Rce1 inh inactive, eIF4H inh 13, HIV Env fusion -51, CSC inhib -8, PABP FP inh 24 and MT1-MMP act inh RFP 3.
Screening CCN(CC)c1ccc(/C=N/Nc2nc3ccccc3[nH]2)cc1 returned MT1-MMP act inh 8, Rce1 inh inactive, eIF4H inh 17, HIV Env fusion 13, PABP FP inh 3, UUG fidelity -13 and MT1-MMP act inh RFP -17.
Screening O=C(O)C1C2CCC(O2)C1C(=O)Nc1cccc(F)c1 (stereo not given) returned Rce1 inh inactive, eIF4H inh 5, CSC inhib -2 and PABP FP inh -5.
Screening Cc1cc(C(=O)NCC(=O)OC(C(=O)Nc2cc(C(F)(F)F)ccc2Cl)c2ccccc2)ccc1[N+](=O)[O-] (stereo not given) returned MT1-MMP act inh -2, eIF4H inh -3, CSC inhib 3, PABP FP inh -5, UUG fidelity -11 and MT1-MMP act inh RFP -2.
Screening CCOC(=O)Cc1csc(NC(=O)c2ccc(Br)s2)n1 returned Rce1 inh inactive, eIF4H inh -8 and PABP FP inh 12.
Screening COc1cc(Cl)cc(C#N)c1OCC(=O)O returned MT1-MMP act inh 1, Rce1 inh inactive, eIF4H inh -6, PABP FP inh -4, UUG fidelity -7 and MT1-MMP act inh RFP 2.
CCCC(=O)OCC(=O)Nc1ccc2c(c1)OCO2 was read as MT1-MMP act inh 4, Rce1 inh inactive, eIF4H inh 5, HIV Env fusion -4, CSC inhib -16, PABP FP inh -4 and MT1-MMP act inh RFP 3.
For COCc1nnc(NC(=O)CCCCCN2C(=O)c3ccccc3C2=O)s1 the results were MT1-MMP act inh 1, Rce1 inh inactive, eIF4H inh -2, HIV Env fusion 5, CSC inhib -7, PABP FP inh -2, UUG fidelity -23 and MT1-MMP act inh RFP -1.
CC(C)C(=O)Nc1nnc(Cc2c[nH]c3ccccc23)s1 was read as MT1-MMP act inh 3, Rce1 inh inactive, eIF4H inh -13, HIV Env fusion -6, PABP FP inh -2 and MT1-MMP act inh RFP 3.

Only part of the results is shown (hit frequency here may not be typical).
